Assay outcomes: PubChem BioAssay, National Center for Advancing Translational Sciences (NCATS)
Six1-Eya2 inh: qHTS Assay for Inhibitors of the Six1/Eya2 Interaction; activity change, % (no concentration beside the values); actives 0.56% (n = 360,000); Homeobox protein SIX1 (Homo sapiens) + Protein phosphatase EYA2 (Homo sapiens), …; AlphaScreen GST-Six1/His-Eya2 binding, biochemical; stronger effect = lower value; control for the full effect not named in the record; AID 651725, 2012; in the data active = activity change below about -65%; inconclusive = about -30% to -65%; inactive = above about -30%; also: % is scaled to controls: 0 for no effect and ±100 for the full control effect; compound concentration not given in the record
Target sequence (O00167 whole entry, looked up): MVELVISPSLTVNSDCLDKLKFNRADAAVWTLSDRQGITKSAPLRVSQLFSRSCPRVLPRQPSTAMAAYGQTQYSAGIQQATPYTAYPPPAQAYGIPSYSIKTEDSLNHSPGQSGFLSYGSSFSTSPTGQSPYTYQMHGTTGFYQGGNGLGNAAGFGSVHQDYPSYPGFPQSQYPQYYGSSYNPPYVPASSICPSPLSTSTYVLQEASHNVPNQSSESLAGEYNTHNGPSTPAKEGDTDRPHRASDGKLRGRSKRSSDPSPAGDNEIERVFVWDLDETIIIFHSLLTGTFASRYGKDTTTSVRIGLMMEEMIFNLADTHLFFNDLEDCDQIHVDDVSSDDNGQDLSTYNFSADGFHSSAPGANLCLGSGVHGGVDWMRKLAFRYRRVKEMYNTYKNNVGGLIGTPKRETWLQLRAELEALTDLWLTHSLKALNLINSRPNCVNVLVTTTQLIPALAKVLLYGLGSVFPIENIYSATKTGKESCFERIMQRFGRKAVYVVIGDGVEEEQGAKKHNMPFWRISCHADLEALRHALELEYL
Target sequence (Q15475 whole entry, looked up): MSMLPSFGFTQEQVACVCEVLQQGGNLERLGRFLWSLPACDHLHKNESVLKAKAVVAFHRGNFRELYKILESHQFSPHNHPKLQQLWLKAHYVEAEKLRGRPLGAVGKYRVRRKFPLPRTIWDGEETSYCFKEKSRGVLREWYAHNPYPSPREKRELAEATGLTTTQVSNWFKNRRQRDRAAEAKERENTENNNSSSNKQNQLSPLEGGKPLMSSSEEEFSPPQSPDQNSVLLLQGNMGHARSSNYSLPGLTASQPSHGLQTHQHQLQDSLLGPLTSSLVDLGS
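AlphaScreen with GST-Six1 and His-Eya2 (5X mix: 250 nM and 500 nM), glutathione donor and nickel acceptor beads; buffer 50 mM Tris pH 8.0, 300 mM NaCl, 1 mM TCEP; 1 h at 37 C in the dark.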
CtBP-E1A blk: qHTS Assay for Inhibitors of the CtBP/E1A Interaction. AlphaScreen GST-E1A/His-CtBP binding, 1536-well; stronger effect = lower value; control for the full effect not named in the record. actives 0.49% (n = 340,000). activity change, % (concentration not given with the values). CtBP / adenovirus E1A interaction (AlphaScreen); in the data active means activity change below about -65%; inconclusive means about -30% to -65%; inactive means above about -30%; also: % is scaled to controls: 0 for no effect and ±100 for the full control effect
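In 5 uL wells, 23 nL compound meets equimolar GST-E1A and His-CtBP (5X stock 125 nM each) for 2 h, 37 °C. Beads (5X, 50 ug/mL) then 1 h, 37 °C, dark.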
D2 potentiator: Beta-Arrestin HTS for Positive Allosteric Modulators of the Human D2 Dopamine Receptor: Potentiators | DiscoveRx D2 beta-arrestin cells, luminescence, 90 min; 100% = 57 uM dopamine signal | potentiation, % (no concentration beside the values) | actives 0.23% (n = 360,000); active = potentiation of 50% or more; inconclusive = 30% to 50%; inactive = 30% or less;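 also: compound concentration not given in the record; tested on top of an EC20 dose of dopamine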
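PathHunter beta-arrestin assay in DiscoveRx D2 cells. Compounds were added with an EC20 of dopamine (50 nM final) for 90 min at 37 deg C. Luminescence was read 1 h after detection reagent, with 57 uM dopamine as the EC100 control.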
TRPML1 agonist: qHTS for Agonists of the Human Mucolipin Transient Receptor Potential 1 (TRPML1). TRPML1-expressing cells, Ca2+ dye fluorescence, FDSS; host cell line not named in the record; reference of the full effect not given here. activation, % (test concentration not listed). actives 0.12% (n = 410,000). AID 624414, 2012; in the data active = activation above about 50%; inconclusive = about 30% to 50%; inactive = below about 30%; also: 0% is about no effect; the text of the record puts the active cut at 80%
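Tetracycline-induced TRPML1-DL cells are seeded and incubated overnight before loading with a no-wash Ca2+ dye and quencher. Agonist activity is taken from the 110 s fluorescence read following compound pin-transfer on an FDSS, before EC80 54-4 challenge.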
TRPV1 PAM: HTS Assay for Compounds that Act as Potentiators of the Vanilloid Receptor 1 | TRPV1-expressing cells, Fluo-8 calcium influx, capsaicin EC20 potentiation; host cell line not named in the record; control for the full effect not named in the record | AID 540277, 2011 | potentiation, % at 8.33 µM | Transient receptor potential cation channel subfamily V member 1 (Homo sapiens), Q8NER1 | actives 0.02% (n = 320,000); active means potentiation above 80%; inconclusive means 30% to 80%; inactive means below 30%; also: 0% is about no effect
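TRPV1-expressing cells were cultured overnight at 35.5C and loaded with Fluo-8 calcium dye for 40 to 90 min at room temperature. After a 10 s baseline, compound was added and calcium influx was read kinetically for 3 min (ex 480/em 520 nm).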
TRPML1 inh: qHTS for Inhibitors of the Human Mucolipin Transient Receptor Potential 1 (TRPML1); TRPML1-inducible cells, Ca2+ dye fluorescence, FDSS; stronger effect = lower value; inhibition of EC80 agonist-evoked calcium signal; activity change, negative = inhibition, % (concentration not given with the values); actives 0.02% (n = 390,000); in the data active means activity change below about -50%; inconclusive means about -30% to -50%; inactive means above about -30%;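 also: stimulus is agonist 54-4 at its EC80 concentration; % is scaled to controls: 0 for no effect and ±100 for the full control effect; compound concentration not given in the record; the text of the record puts the active cut at -80%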
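Calcium fluorescence in TRPML1-DL cells induced overnight with Tet: a 110 s read after compound pin addition, then a 110 s antagonist read after challenge with 54-4 at 4 uM final (EC80).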
* = called active by the depositor; ? = inconclusive; / = no result given. Compounds were not picked by outcome; 0.95% or so of the library scored in one or more.

SMILES	Six1-Eya2 inh	CtBP-E1A blk	D2 potentiator	TRPML1 agonist	TRPV1 PAM	TRPML1 inh
Cc1cc(C)nc(CCNC(=O)c2cc(COc3c(C)cccc3C)on2)n1	-2	0	8	-0.1	-19	-8
COc1ccc(CNC(=O)c2ccc(NC(=O)C3CCCO3)cc2)cc1 (stereo not given)	3	4	14	1.9	5	22
Cc1ccnc2nc(C(=O)Nc3nnc(CC(C)C)s3)nn12	-4	-3	4	-0.7	1	15
Nc1nc2c(nnn2C2CC(O)C(CO)O2)c(=O)[nH]1 (stereo not given)	2	10	-4	-0.3	/	/
COc1ccc(OC)c(S(=O)(=O)N2CCC(C(=O)NC3CCCCCC3)CC2)c1	-6	-6	-7	-0.5	-4	8
Cc1n[nH]c(C)c1S(=O)(=O)NCCc1ccc(Cl)cc1	5	6	-41	-0.3	19	6
O=C(CNC(=O)c1ccc(Cl)cc1)NCCCn1ccnc1	0	-1	-2	-0.3	10	-2
O=C(Nc1ccnn1C1CCN(Cc2ccccc2OC(F)F)CC1)c1cccnc1	4	-18	-20	0.3	2	-3
CN1CCN(C2=Cc3ccc(Cl)cc3Sc3ccc(F)cc32)CC1	?	?	-25	6.0	29	65
N#Cc1ccccc1NC(=O)C1SC(=Nc2ccccc2)C(C(=O)Nc2ccc(Cl)cc2)=C1N (stereo not given)	-21	0	-6	-0.6	-3	-12
O=C(CSc1cccc[n+]1[O-])c1cccs1	3	4	-2	0.0	12	33
CC(C)(C)[C@@H]1COC(=O)[C@@H](Cc2ccc(F)cc2)CC/C=C\C[C@@H](CC(=O)N(CCO)Cc2ccccc2)C(=O)N1	2	0	-1	0.3	/	-3
CC(C)n1c(SCC(=O)Nc2ccccc2N2CCCCC2)nc2c1c(=O)n(C)c(=O)n2C	4	11	1	0.9	-5	22
C=CCn1c(-c2cccn(Cc3ccc(Cl)cc3Cl)c2=O)n[nH]c1=S	0	-5	-19	-0.3	5	0
O=C(Nc1ccc(Cl)c(Cl)c1)c1ccc(Cn2cc(Cl)cn2)cc1	3	/	-3	-0.8	7	17
COc1cccc(CN(C)C(=O)c2cccc(S(=O)(=O)N3CCN(c4ccccc4)CC3)c2)c1OC	-6	-21	-1	0.9	/	-13
CCC(SC1=N/C(=C/c2ccccc2)C(=O)N1c1ccccc1)C(=O)Nc1cc(C)on1 (stereo not given)	0	3	0	0.1	27	-26
O=C1CC(N2CCN(Cc3ccccc3)CC2)C(=O)N1CCc1ccccc1 (stereo not given)	-1	0	3	0.7	2	12
Cc1ccc(-c2noc(CN(C(=O)C34CC5CC(CC(C5)C3)C4)C(C)C)n2)cc1	1	5	-10	-0.3	-4	-5
Cc1ccc2oc3c(c(=O)c2c1)C(c1cccs1)N(CCCN(C)C)C3=O (stereo not given)	-1	5	-3	0.9	4	4
CCOC(=O)N1CCN(C(=O)CN(c2ccc3c(c2)OCO3)S(C)(=O)=O)CC1	4	-14	-7	1.4	2	5
CC(C)OC(=O)/C(C#N)=C/c1cn(Cc2ccccc2)c2ccccc12	3	19	-10	1.0	-3	14
O=C(NNC(=O)c1cccnc1)Nc1ccc([N+](=O)[O-])cc1	0	6	-13	-0.6	-3	4
O=S(=O)(N/N=C1\CC(c2ccccc2)Oc2ccccc21)c1ccccc1 (stereo not given)	-5	-4	3	2.2	21	52
CCOc1ccc(C(=O)CN2CCN(S(=O)(=O)c3ccc(F)cc3)CC2)cc1	2	-1	6	-0.3	/	-1

Given as a markdown table: part of the list above
| SMILES | Six1-Eya2 inh | CtBP-E1A blk | D2 potentiator | TRPML1 agonist | TRPV1 PAM | TRPML1 inh |
| --- | --- | --- | --- | --- | --- | --- |
| CC(C)n1c(SCC(=O)Nc2ccccc2N2CCCCC2)nc2c1c(=O)n(C)c(=O)n2C | 4 | 11 | 1 | 0.9 | -5 | 22 |
| C=CCn1c(-c2cccn(Cc3ccc(Cl)cc3Cl)c2=O)n[nH]c1=S | 0 | -5 | -19 | -0.3 | 5 | 0 |
| O=C(Nc1ccc(Cl)c(Cl)c1)c1ccc(Cn2cc(Cl)cn2)cc1 | 3 | / | -3 | -0.8 | 7 | 17 |
| COc1cccc(CN(C)C(=O)c2cccc(S(=O)(=O)N3CCN(c4ccccc4)CC3)c2)c1OC | -6 | -21 | -1 | 0.9 | / | -13 |
| CCC(SC1=N/C(=C/c2ccccc2)C(=O)N1c1ccccc1)C(=O)Nc1cc(C)on1 (stereo not given) | 0 | 3 | 0 | 0.1 | 27 | -26 |
| O=C1CC(N2CCN(Cc3ccccc3)CC2)C(=O)N1CCc1ccccc1 (stereo not given) | -1 | 0 | 3 | 0.7 | 2 | 12 |
| Cc1ccc(-c2noc(CN(C(=O)C34CC5CC(CC(C5)C3)C4)C(C)C)n2)cc1 | 1 | 5 | -10 | -0.3 | -4 | -5 |
| Cc1ccc2oc3c(c(=O)c2c1)C(c1cccs1)N(CCCN(C)C)C3=O (stereo not given) | -1 | 5 | -3 | 0.9 | 4 | 4 |
| CCOC(=O)N1CCN(C(=O)CN(c2ccc3c(c2)OCO3)S(C)(=O)=O)CC1 | 4 | -14 | -7 | 1.4 | 2 | 5 |
| CC(C)OC(=O)/C(C#N)=C/c1cn(Cc2ccccc2)c2ccccc12 | 3 | 19 | -10 | 1.0 | -3 | 14 |
| O=C(NNC(=O)c1cccnc1)Nc1ccc([N+](=O)[O-])cc1 | 0 | 6 | -13 | -0.6 | -3 | 4 |
| O=S(=O)(N/N=C1\CC(c2ccccc2)Oc2ccccc21)c1ccccc1 (stereo not given) | -5 | -4 | 3 | 2.2 | 21 | 52 |
| CCOc1ccc(C(=O)CN2CCN(S(=O)(=O)c3ccc(F)cc3)CC2)cc1 | 2 | -1 | 6 | -0.3 | / | -1 |

(listing goes on)
SMILES	Six1-Eya2 inh	CtBP-E1A blk	D2 potentiator	TRPML1 agonist	TRPV1 PAM	TRPML1 inh
Cc1ccc(S(=O)(=O)N(C)C)cc1NC(=O)CCc1c[nH]c2ccccc12	-10	27	-23	0.4	14	-9
CCOC(=O)c1c(S(=O)(=O)N(C)Cc2ccccc2)c(C)n(C)c1C	-11	-15	-24	-0.4	-11	1
COc1cc(NC(=O)c2c(OC)cccc2OC)ccc1NC(=O)c1cc2ccccc2o1	-4	-4	3	0.6	5	7
Cc1ccc(C(=O)C2=C(O)C(=O)N(Cc3cccnc3)C2c2ccc(Cl)c(Cl)c2)o1 (stereo not given)	-9	-29	-8	1.1	-9	-2
COc1ccc(N2CSC3=C(C#N)C(c4cc(OC)ccc4OC)CC(=O)N3C2)c(OC)c1 (stereo not given)	-13	-5	3	1.4	/	-1
C/C(=N\Nc1ccc([N+](=O)[O-])cc1)c1ccc2c(c1)OCO2	1	-19	-7	8.5	-3	3
COC(=O)c1cc(OC)c(OC)cc1NC(=S)Nc1cccc(C(C)=O)c1	-19	-13	-6	-0.3	15	-1
O=C(CCNC(=O)c1ccccc1Cl)Nc1nnc(C2CC2)s1	-5	9	6	-1.5	22	19
Cn1c(=O)cc(OCC(=O)NCCC2=CCCCC2)c2ccccc21	-1	4	-6	-0.2	2	-3
CC(=O)Nc1ccc(Oc2ccccc2)cc1	3	0	-6	/	-7	/
O=C(CNS(=O)(=O)c1ccccc1)Nc1ccc(C(F)(F)F)cc1	3	10	1	1.4	-11	3
O=C(O)c1[nH]nc2c1COc1ccccc1-2	0	0	-20	-0.4	-10	7
Cc1nc2nc(-c3ccccc3)[nH]n2c(=O)c1C	0	3	-11	-0.5	-8	?
O=C(O)c1ccc(Oc2ccc([N+](=O)[O-])cc2)c([N+](=O)[O-])c1	-15	11	-18	-0.1	/	6
O=C(Nc1nnc(-c2ccncc2)o1)c1ccc(Br)s1	?	-4	-1	0.7	-8	31
COc1ccc(C(C#N)(CCC#N)CCC#N)cc1OC	-9	3	-20	0.1	-51	5
Cc1ccc(SCc2cc(=O)[nH]c(/N=C(\N)Nc3cccc4ccccc34)n2)cc1	-3	-16	-3	3.3	0	-4
Cn1c(NCCCN2CCOCC2)nc2c1c(=O)n(Cc1ccc(Cl)c(Cl)c1)c(=O)n2C	-22	-29	-4	0.6	16	15
CCOC(=O)N1CCN(CC(=O)c2c(C)[nH]c3ccccc23)CC1	-3	2	-8	-0.4	9	1
O=C(NCC(=O)N1CCCC1)NN=Cc1ccccc1O	?	-77*	-6	-0.5	/	/
CCC(=O)Nc1nnc(/C=C/c2ccc(OC)cc2)s1	-2	-6	1	0.9	/	4
CCN(C(=O)COC(=O)CSc1ccc(C(N)=O)cc1[N+](=O)[O-])C1CCCCC1	19	0	-6	0.6	4	1
CC1(C)OC(=O)N(c2ccccc2)C12C=Cc1c(ccc3ccccc13)O2 (stereo not given)	0	-7	-4	6.4	-5	5
CC(=O)Nc1ccc(S(=O)(=O)NCC(=O)OCC(=O)NC23CC4CC(CC(C4)C2)C3)cc1	6	0	-9	1.0	-19	26
O=C(NCCc1nnc2ccc(SCC(=O)N3CCCC3)nn12)c1ccccc1	2	2	-7	-0.3	4	13
Remaining list, next part.
SMILES	Six1-Eya2 inh	CtBP-E1A blk	D2 potentiator	TRPML1 agonist	TRPV1 PAM	TRPML1 inh
O=C(NCC1CCCO1)C(c1cccs1)N(Cc1cccs1)C(=O)c1ccc(-c2ccccc2)[nH]1 (stereo not given)	-16	2	-19	2.4	14	39
N#Cc1cccc(CN2CCC(=O)N(CCO)CC2)c1	8	10	-2	-0.1	-9	2
Cc1ccc(N2C(=O)C(c3c(C)[nH]n(-c4ccccc4)c3=O)(C(F)(F)F)C3=C2CC(C)(C)CC3=O)cc1 (stereo not given)	-1	-9	-11	3.6	17	-1
COc1cc(CN2CCCC(N3CCN(c4ccc(F)cc4)CC3)C2)ccc1F (stereo not given)	-4	/	-68	/	-7	/
COc1ccc(S(=O)(=O)N2CCCC(C(=O)NCc3cccnc3)C2)cc1C (stereo not given)	-7	-4	-14	-0.9	/	0
COc1cccc(-c2coc3c(C)c4oc(=O)c(CC(=O)O)c(C)c4cc23)c1	-12	-22	-5	-1.3	10	13
CN(/N=C\c1ccc(O)c(O)c1)c1nc(-c2ccccc2)cc(-c2ccccc2)n1	-22	-22	16	3.2	6	46
COc1ccc(CCN(C)Cc2c(O)ccc3cc(Br)ccc23)cc1OC	-8	-5	-21	-0.9	-12	-5
Cc1ccc(S(=O)(=O)Nc2ccncc2)c(C)c1N(C)S(=O)(=O)c1ccc(Cl)cc1	10	3	-18	0.1	-1	-8
O=C(NCc1cccs1)c1ccc(CS(=O)Cc2cccc(Cl)c2)o1 (stereo not given)	-1	-6	-13	-0.7	-2	5
